High-throughput results as filed in PubChem BioAssay.
KCNQ2 block – KCNQ2 potassium channel inhibitors, primary screen, cell-based, CHO-K1, FluxOR thallium flux, B-score (AID 2156); 310,000 compounds, 1.1% hits; 20 min; active compounds read low; only compounds with negative scores are shown here; some inactives read as strong as hits; B-score at 10 µM;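 active = fluorescence ratio B-score at most minus 3 library SDs, with starting brightness B-score within 2 library SDs, cut at about -5.5 in these data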
Target sequence (O88943 whole entry, looked up): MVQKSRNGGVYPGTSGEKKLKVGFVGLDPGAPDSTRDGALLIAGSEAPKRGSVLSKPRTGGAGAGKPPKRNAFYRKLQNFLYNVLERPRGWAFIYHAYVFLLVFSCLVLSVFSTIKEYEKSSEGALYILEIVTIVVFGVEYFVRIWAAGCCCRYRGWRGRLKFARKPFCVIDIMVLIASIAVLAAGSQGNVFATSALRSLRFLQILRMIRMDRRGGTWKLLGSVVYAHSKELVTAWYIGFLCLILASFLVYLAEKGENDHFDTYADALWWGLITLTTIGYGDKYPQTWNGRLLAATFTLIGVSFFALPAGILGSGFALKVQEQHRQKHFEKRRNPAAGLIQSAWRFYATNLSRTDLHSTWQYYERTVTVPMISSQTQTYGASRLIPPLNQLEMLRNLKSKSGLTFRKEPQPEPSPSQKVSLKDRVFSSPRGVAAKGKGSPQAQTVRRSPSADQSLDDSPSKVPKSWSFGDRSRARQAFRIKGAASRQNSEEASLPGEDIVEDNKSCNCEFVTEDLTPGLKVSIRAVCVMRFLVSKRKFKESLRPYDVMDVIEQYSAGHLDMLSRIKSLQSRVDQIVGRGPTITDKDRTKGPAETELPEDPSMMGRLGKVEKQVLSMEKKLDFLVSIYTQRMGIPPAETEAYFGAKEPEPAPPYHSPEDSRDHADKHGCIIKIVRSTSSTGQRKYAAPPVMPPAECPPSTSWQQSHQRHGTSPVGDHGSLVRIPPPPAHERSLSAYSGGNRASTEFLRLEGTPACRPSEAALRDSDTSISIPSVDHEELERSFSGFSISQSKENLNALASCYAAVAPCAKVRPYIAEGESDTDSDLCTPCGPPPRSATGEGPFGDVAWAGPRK
KCNQ2 block baseline – further read-out of KCNQ2 block, marked with its call; B-score; measured here: initial fluorescence intensity artifact check;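 brightness before thallium and not channel activity; 0 = typical well and far values either way flag optical interference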
The depositor's hits bear a star; i = inactive.

SMILES	KCNQ2 block	KCNQ2 block baseline
O=Cc1ccc(-n2cc(C=O)c3ccccc32)cc1	i	0.5
COc1cc(C2(c3ccc(O)c(OC)c3)C(=O)Nc3c(C)cc(Br)cc32)ccc1O	i	-2.04
CN1CCN(/C(=N\S(=O)(=O)c2ccc(F)cc2)c2ccccc2)CC1	i	-1.04
COc1ccc(C(C(=O)OC(C)CN(C)C)c2ccccc2)cc1 (stereo unspecified)	i	2
COc1ccccc1N(Cc1cc2ccc(C)cc2[nH]c1=O)C(C)=O	i	-0.24
Cc1ccc(/C=C2/NC(=O)[C@H](C)NC2=O)cc1	i	-1.1
O=C(Cn1cc([N+](=O)[O-])cn1)Nc1ccn(Cc2c(F)c(F)c(F)c(F)c2F)n1	i	0.15
COc1ccc2nc(C)cc(Sc3nc4ccccc4s3)c2c1	i	-1.7
COc1cc(OC)c(OC)cc1CNc1nnnn1C	i	0.15
CC(=O)Nc1nc(NC(=O)C(Cl)(Cl)Cl)n(-c2ccccc2)n1	i	0.82
c1coc(-c2nc3nc4ccccc4n3nc2-c2ccco2)c1	i	-1.09
COC(=O)CCc1sc(Nc2ccccc2)nc1-c1ccc(OC)cc1	i	-2.1

Part of the list above, with values under each structure.
Values run as follows: KCNQ2 block	KCNQ2 block baseline
COc1ccc2nc(C)cc(Sc3nc4ccccc4s3)c2c1
  i	-1.7
COc1ccc(C(C(=O)OC(C)CN(C)C)c2ccccc2)cc1 (stereo unspecified)
  i	2
COC(=O)CCc1sc(Nc2ccccc2)nc1-c1ccc(OC)cc1
  i	-2.1
c1coc(-c2nc3nc4ccccc4n3nc2-c2ccco2)c1
  i	-1.09
COc1cc(C2(c3ccc(O)c(OC)c3)C(=O)Nc3c(C)cc(Br)cc32)ccc1O
  i	-2.04
COc1ccccc1N(Cc1cc2ccc(C)cc2[nH]c1=O)C(C)=O
  i	-0.24

Following part:
SMILES	KCNQ2 block	KCNQ2 block baseline
C/C=C/c1ccccc1OCc1ccc(C(=O)OC)o1	i	1.57
CN(C)CCN(C(=O)c1ccc(S(=O)(=O)N(C)C)cc1)c1nc2cc3c(cc2s1)OCCO3	i	0.88
COc1ccc(-c2cc(=O)oc3cc(OCC(C)=O)ccc23)cc1	i	0.97
C=CCNC(=O)c1ccccc1NC(=O)COc1ccccc1	i	0.74
CCN(CC)C(=O)Cc1c(OC)ccc2cc(Br)ccc12	i	1.1
CC1CC(C)(C)N(C(=O)CSc2ccc(-c3ccc(F)cc3)nn2)c2ccccc21 (stereo unspecified)	-5.67*	-1.17*
Cc1ccccc1CS(=O)(=O)Cc1ccc(C(=O)NCCCN2CC(C)CC(C)C2)o1 (stereo unspecified)	i	0.07
CCCCNc1c(-c2cccc(-c3cc(C(C)=O)cs3)c2)nc2ccc(C)cn12	i	-1.01
CCn1nnc(-c2ccccc2NS(=O)(=O)c2ccc(S(=O)(=O)N(C)C3CCCCC3)cc2)n1	i	1.37
Cc1nccn1CCOc1ccccc1Cl	i	0.49
Cc1cccc(CN2CCc3c(OCC(=O)NCc4ccco4)cccc3C2=O)c1	i	-0.07
Cc1ccc(S(=O)(=O)N2CCC3(CC2)OCCO3)cc1	i	-0.86

Complete entries, quoted from the list:
Shown for CC(=O)Nc1nc(NC(=O)C(Cl)(Cl)Cl)n(-c2ccccc2)n1 = KCNQ2 block = i; KCNQ2 block baseline = 0.82
Shown for C/C=C/c1ccccc1OCc1ccc(C(=O)OC)o1 = KCNQ2 block = i; KCNQ2 block baseline = 1.57

Further structures.
SMILES	KCNQ2 block	KCNQ2 block baseline
C=CCNC(=S)Nc1ccc(Cl)cc1	i	2.6
c1cncc(N=c2scc(-c3cccc4ccccc34)n2CCCn2ccnc2)c1	i	1.3
COc1ccccc1-n1cc([C@@H]2C[C@H]3CN(c4ccccc4)C(=O)[C@]34CCCN24)cn1	i	0.02
CCOc1ccccc1NC(=S)N1C2CCC1CC(NC(=O)NC13CC4CC(CC(C4)C1)C3)C2 (stereo unspecified)	i	0.72
CCN(C(=O)c1cccc(S(=O)(=O)N(C)C)c1)C12CC3CC(CC(C3)C1)C2	i	-1
O=C1c2cccc(OCc3ccc(F)cc3)c2CCN1Cc1ccc(F)cc1	i	-0.8
CCOC(=O)c1c(C)[nH]c(C)c1S(=O)(=O)NCC1CCN(Cc2ccc(C)cc2)CC1	i	1.21
CN(C)S(=O)(=O)c1ccc(Oc2ccccc2)cc1	i	-2.15
COC(=O)CC1COc2ccccc2N1C(=O)c1ccc(Cl)cc1 (stereo unspecified)	i	-0.24
CCc1c(C)nc(SCC(=O)Nc2nc(-c3ccc(OC)cc3)cs2)[nH]c1=O	i	-0.07
COc1cc(C(=O)NCc2ccc(C(=O)NCC(OC)OC)cc2)cc(OC)c1OC	i	-0.09
COc1ccccc1NC(=S)NNC(=O)c1ccccc1Br	i	1.41
CC(C)[C@H](NC(=O)N1CCn2c1nc1ccccc12)C(=O)NCc1ccc(F)cc1	i	-1.82
Cc1ccccc1CCNC(=O)Cn1nc(C)c2c(C)n(-c3ccccc3)nc2c1=O	i	0.12
COc1ccc(NC2CCCN(C(=O)c3ccc(CSC)o3)C2)cc1OC (stereo unspecified)	i	0.3
CCOc1cccc(-c2nnc3sc(COc4ccc(Cl)cc4)nn23)c1	i	0.06
N/C(=N\OC(=O)c1ccc(Cl)c([N+](=O)[O-])c1)c1ccccc1	i	-0.16
Cc1nc2ccc(S(=O)(=O)NC(C(=O)N3CCCC3)C(C)C)cc2s1 (stereo unspecified)	i	1.12
O=C(N/N=C/c1ccc[nH]1)c1ccccc1[N+](=O)[O-]	i	1.12
O=C(c1c(F)cccc1Cl)N1CCN(S(=O)(=O)c2ccc3c(c2)OCCCO3)CC1	i	-0.01
COc1ccc(C(=O)NC(C)CCc2ccccc2)cc1 (stereo unspecified)	i	-0.61
N#Cc1cn(-c2ccccc2)nc1C(=O)c1ccccc1	i	-1.46
c1ccc(C(c2ccccc2)N2CCN(C(c3ccccn3)c3nnnn3C3CCCC3)CC2)cc1 (stereo unspecified)	i	-0.67
O=C(/C=C/c1cccc(C(F)(F)F)c1)N1CCN(c2ccccn2)CC1	i	-1.32
CCn1c(-c2ccccc2Cl)nn(CC(=O)Nc2ccccc2C)c1=S	i	-0.22
COc1ccc(C(=O)N2CCCC(C(=O)O)C2)c2ccccc12 (stereo unspecified)	i	1.67
O=C(Nc1cccc([N+](=O)[O-])c1)N1CCc2ccccc2C1	i	2.07
CCOc1cc(/C=C2\NC(=S)N(c3c(C)n(C)n(-c4ccccc4)c3=O)C2=O)ccc1O	i	1.52
NC1=NC(=O)/C(=C/c2cc(Br)c(O)c(Br)c2)S1	i	3.23
CCOC(=O)/C(C#N)=C/c1cn(CCC(=O)O)nc1-c1ccccc1	i	1.85
O=C(NC(=S)NNC(=O)c1cccs1)c1ccccc1	i	-0.18
COc1ccc(S(=O)(=O)N2CCC(NC(=O)C(Cc3cccc(OC)c3OC)NC(C)=O)CC2)cc1 (stereo unspecified)	i	-1.64
CCOC(=O)C(C)N1C(=O)S/C(=C\c2ccc(-c3ccccc3C(=O)O)o2)C1=O (stereo unspecified)	i	3.57
O=S1(=O)CCC(NC(=S)NCCNC(=S)NC2CCS(=O)(=O)C2)C1 (stereo unspecified)	i	-1.17
O=C(NCc1ccccc1)C1=C[C@@H](c2ccc3c(c2)OCO3)C[C@@H](OCc2ccc(CO)cc2)O1	i	0.03
Cc1ccc(-n2ncc3c2CCCC3NC(=O)CCc2cnn(C)c2)cc1C (stereo unspecified)	i	-0.64
COCCNC(=O)CN(C(=O)Cn1nnc2ccccc21)c1cccc(C)c1C	i	0.27
Cc1onc(-c2ccccc2Cl)c1C(=O)OCC(=O)N1CCCc2ccccc21	i	0.37
Cc1ccc(C)c(OCC(=O)NNC(=O)c2ccc(NC(=O)C3CC3)cc2)c1	i	-1.06
CC1=NN(c2ccc(C)c(C)c2)C(=O)/C1=C/c1ccc2c(c1)n(C)c(=O)n2C	i	1.1
CCCCOc1ccc(-c2c(C(=O)Nc3ccccc3)c(C)[nH]c(=S)c2C#N)cc1	i	2.96
Cn1c(SCc2ccccn2)nnc1-c1ccncc1	i	-0.39
CC1SCC(NC(=O)c2ccccc2Cl)CS1 (stereo unspecified)	i	1.26
Clc1cc(Br)ccc1OCCn1ccnc1	i	1.09
NC(Cc1ccc2nsnc2c1)C(=O)O (stereo unspecified)	i	-0.41
CC(=O)Nc1ccc(CN2CCN(C3CCCC3)C(CCO)C2)cc1 (stereo unspecified)	i	0.3
Cc1ccnc(NS(=O)(=O)c2ccc(NC(=O)C(C)(C)C)cc2)n1	i	-0.58
O=C1CCc2cc(S(=O)(=O)NCc3ccc(Cl)cc3)cc3c2N1CC3	i	0.53
O=C(Oc1ccc2ccc(=O)oc2c1)c1ccc([N+](=O)[O-])cc1	i	1.96
CC(C)(C)c1cc(C2=CSC3=NCCN23)cc(C(C)(C)C)c1O	i	0.02
O=C(CCS(=O)(=O)c1ccccc1)Nc1ccc(S(=O)(=O)Nc2ncccn2)cc1	i	0.36
COc1ccc(S(=O)(=O)N(C)c2ccc(C(=O)N3CCOCC3)cc2)cc1	i	1.11
O=C(Nn1cnc2ccccc2c1=O)c1ccccc1[N+](=O)[O-]	i	0.24
COc1ccccc1OCCSc1nc2ccc([N+](=O)[O-])cc2s1	i	-1.21
COc1ccc(C2(C(F)(F)F)NC(=O)N(C)C(=O)N2C)cc1 (stereo unspecified)	i	-0.03
COc1ccc(NC(=O)NCCCN2CCCCC2C)cc1 (stereo unspecified)	i	1.11
Cc1oc2c(C)c3oc(=O)c(CCC(=O)N4CCC(C(=O)NCCC(=O)O)(c5ccccc5)CC4)c(C)c3cc2c1C	i	0.76
CC(C)(C)OC(=O)N[C@@H](Cc1ccccc1)C(=O)NCC1CCC(C(=O)O)CC1 (stereo partly specified)	i	-0.44
Cc1ccc(NC(=S)N/N=C/c2c(C)[nH]c3ccccc23)cc1	i	0.41
CCC1(C)Cc2ccccc2-c2nc(NCCCO)n(-c3ccccc3)c(=O)c21 (stereo unspecified)	i	-1.16
(further entries)
SMILES	KCNQ2 block	KCNQ2 block baseline
COCCCNC(=O)/C=C/c1ccc(OCc2c(F)cccc2Cl)cc1	i	2.78
O=C1/C(=C\c2ccccn2)SC(=S)N1Nc1ncc(C(F)(F)F)cc1Cl	i	0.46
CC(C)C1OC(c2cccc(NC(=O)c3cccs3)c2)OCC1(C)C (stereo unspecified)	i	-0.04
O=C(Nc1cc(Cl)ccc1N1CCOCC1)c1ccc(Br)o1	i	-1.23
CC1CCCC(NC(=O)CCn2c(=O)oc3ccccc32)C1C (stereo unspecified)	i	-2.21
CN(C)/C=C/c1onc(-c2ccccc2Cl)c1C#N	i	-0.04
Cc1[nH]n(-c2ccccc2)c(=O)c1C(=O)Nc1ccccc1	i	-1.61
Cc1ccc(C)c(Nc2nc(-c3cccnc3)cs2)c1	i	0.71
FC(F)(F)c1ccc2c(c1)C1C=CCC1C(c1ccncc1)N2 (stereo unspecified)	i	-1.18
Cc1cccc(C)c1NC(=O)c1cccnc1	i	0.57
O=C(c1ccccc1)c1cccc(NC(=O)c2ccc(Br)o2)c1	i	0.38
COc1ccc(/C(N)=N/O)c(OC)c1	i	0.54

Reformatted as labelled records: 4 of the compounds above.
> CCOc1ccccc1NC(=S)N1C2CCC1CC(NC(=O)NC13CC4CC(CC(C4)C1)C3)C2 (stereo unspecified)
  KCNQ2 block: i | KCNQ2 block baseline: 0.72
> CCN(C(=O)c1cccc(S(=O)(=O)N(C)C)c1)C12CC3CC(CC(C3)C1)C2
  KCNQ2 block: i | KCNQ2 block baseline: -1
> O=C1c2cccc(OCc3ccc(F)cc3)c2CCN1Cc1ccc(F)cc1
  KCNQ2 block: i | KCNQ2 block baseline: -0.8
> CCOC(=O)c1c(C)[nH]c(C)c1S(=O)(=O)NCC1CCN(Cc2ccc(C)cc2)CC1
  KCNQ2 block: i | KCNQ2 block baseline: 1.21

(next part)
SMILES	KCNQ2 block	KCNQ2 block baseline
Cc1cc2cc(CNC(=O)c3ccc(S(=O)(=O)N4CCCCC4)cc3)ccc2n1C	i	-1.35
Nc1ccccc1Nc1cc(-c2cccc(Cl)c2)nn1-c1ccccc1	i	-0.6
N#C/C(=C\c1cc([N+](=O)[O-])c(N2CCOCC2)cc1N1CCOCC1)c1nc2ccccc2[nH]1	i	0.3
COC(=O)C(C)Sc1nc2c(cnn2-c2ccc(Cl)cc2)c(=O)[nH]1 (stereo unspecified)	i	-2.04
CCOc1ccccc1N1CCN(C(=O)NCc2ccc(Cl)cc2)CC1	i	0.86
COCc1ccc(C(=O)N2CCCC(Nc3ccc(C(C)C)cc3)C2)s1 (stereo unspecified)	i	1.74
O=C(COC(=O)c1ccc(F)cc1F)Nc1ncccn1	i	1.11
CCOc1ccc(NC(=O)c2ccccc2O)cc1	i	-0.05
COc1ccc(C(=O)Cn2c(NCCO)nc3ccccc32)cc1OC	i	-0.26
Cc1cc(C)cc(C(=O)OCC(=O)NCCNC(=O)COC(=O)c2cc(C)cc(C)c2)c1	i	0.67
Clc1cc(-c2ccc(/C=N/n3cnnc3)o2)ccc1Br	i	0.38
O=C(NC(=S)NCCN1CCOCC1)c1ccccc1	i	0.16
CCOC(=O)[C@@H]1[C@H]2COc3ccccc3[C@@H]2N2C(=O)N(c3cccc(Cl)c3)C(=O)[C@@]12C	i	0.47
COCCn1c(N)c(N(Cc2ccccc2)C(=O)CN2C(=O)NC(C)(c3ccccc3)C2=O)c(=O)[nH]c1=O (stereo unspecified)	i	-0.81
CC(C)Sc1nc2ccccc2n1CC(N)=O	i	0.3
COc1ccccc1N1C(=O)CC(Sc2nccc(C)n2)C1=O (stereo unspecified)	i	5.05
Cc1ccc(CN(C)C(=O)c2cc(COc3ccc(F)cc3Cl)on2)o1	i	-0.33
O=C(C1=C[C@@H](c2ccc(Br)cc2)C[C@@H](OCc2ccc(CO)cc2)O1)N1CCN(Cc2ccccc2)CC1	i	-1.36
COc1ccc2cc(S(=O)(=O)N3CCCCCC3)ccc2c1	i	0.96
CCCC[C@@H]1C[C@H]1[C@@H](NC(=O)c1cccs1)c1ccc(Cl)cc1	-7.97*	0.52*
CC(C)(C)C(=O)Nc1ccccc1C(=O)Nc1cccnc1	i	-1.15

These rows are one share of the data. The share of hits here may be higher or lower than overall.
